Screens: PubChem, Johns Hopkins Ion Channel Center
KCNQ2 block = KCNQ2 potassium channel inhibitors, primary screen, cell-based, CHO-K1, FluxOR thallium flux, B-score (AID 2156). Potassium voltage-gated channel subfamily KQT member 2 (Rattus norvegicus), O88943. 20 min; stronger effect = lower value; only compounds with negative scores are shown here; some inactives read as strong as hits. B-score at 10 µM. actives 1.1% (n = 310,000);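 active means fluorescence ratio B-score at most minus 3 library SDs, with starting brightness B-score within 2 library SDs, cut at about -5.5 in these data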
Target sequence (O88943 whole entry, looked up): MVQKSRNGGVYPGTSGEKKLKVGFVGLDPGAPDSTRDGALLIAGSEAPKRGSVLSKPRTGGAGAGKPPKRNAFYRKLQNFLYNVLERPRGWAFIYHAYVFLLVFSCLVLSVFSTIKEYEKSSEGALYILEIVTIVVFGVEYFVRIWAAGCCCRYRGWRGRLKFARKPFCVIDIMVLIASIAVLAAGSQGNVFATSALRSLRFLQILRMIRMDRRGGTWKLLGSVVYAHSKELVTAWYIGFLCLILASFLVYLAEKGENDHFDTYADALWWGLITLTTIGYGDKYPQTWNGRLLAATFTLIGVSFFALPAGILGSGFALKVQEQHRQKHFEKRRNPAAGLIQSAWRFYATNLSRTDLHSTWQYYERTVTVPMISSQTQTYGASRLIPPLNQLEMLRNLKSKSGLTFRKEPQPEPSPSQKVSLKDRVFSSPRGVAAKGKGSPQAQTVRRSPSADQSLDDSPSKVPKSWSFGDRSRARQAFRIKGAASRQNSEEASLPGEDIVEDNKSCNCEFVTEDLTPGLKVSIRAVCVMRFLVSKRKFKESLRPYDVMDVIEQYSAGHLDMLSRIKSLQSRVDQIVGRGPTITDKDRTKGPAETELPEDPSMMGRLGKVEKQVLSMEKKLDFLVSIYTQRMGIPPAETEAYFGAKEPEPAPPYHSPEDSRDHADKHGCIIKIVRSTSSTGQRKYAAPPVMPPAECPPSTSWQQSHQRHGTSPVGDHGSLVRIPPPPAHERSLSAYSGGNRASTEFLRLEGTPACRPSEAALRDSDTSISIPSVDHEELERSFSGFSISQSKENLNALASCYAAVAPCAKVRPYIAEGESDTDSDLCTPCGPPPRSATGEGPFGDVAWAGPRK
KCNQ2 block baseline = recorded beside KCNQ2 block, whose call it bears; B-score; measured here: initial fluorescence intensity artifact check;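 brightness before thallium and not channel activity; 0 = typical well and far values either way flag optical interference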
* hit, by the source's call; i = inactive. This is a subset; count on the stated rates, not on these rows.

SMILES | KCNQ2 block | KCNQ2 block baseline
COc1ccc(OC)c(C(c2c(O)c3ccccc3oc2=O)c2c(C)n(C)n(-c3ccccc3)c2=O)c1 (stereo not given) | i | -1.29
COc1ccc(/C=C/C(=O)c2c(O)n(CCC3=CCCCC3)c(=O)[nH]c2=O)cc1OC | i | 1.13
Cc1ncc(CN2CCCC(C(=O)c3cccc(Cl)c3)C2)s1 (stereo not given) | i | -1.29
CCCCCc1nc2ccccc2c(=O)n1-c1ccccc1[N+](=O)[O-] | i | -0.62
CC1CCC(C(C)C)C(OC(=O)Cn2c(COc3ccccc3)[n+](C)c3ccccc32)C1 (stereo not given) | -9.99* | -0.04*
CN(C(=O)c1ccc(Cl)nc1)C1(c2ccccc2Cl)CCCCC1=O (stereo not given) | i | -0.44
O=C1CN(C(=O)CN2CCCCC2)C(c2ccccc2)c2cc(Br)ccc2N1 (stereo not given) | i | 1.18
CCc1ccc(CNCCc2ccc(F)cc2)cc1 | i | 0.08
CCCCCCNC(=O)N[C@H](Cc1ccc(O)cc1)C(=O)NCCC[C@H]1CN2C(=NC[C@H]2CCC)N1CC1CCC1 | i | -1.74
Clc1ccccc1Nc1ncnc(-n2cccc2)n1 | i | 0.08
O=C(COC(=O)c1cccc(O)c1)Nc1ccc(Cl)cc1C(=O)c1ccccc1 | i | 1.86
COc1cc2c(cc1OC)C(c1c(O)n(CCc3ccccc3)c(=S)[nH]c1=O)NCC2 (stereo not given) | i | 0.14
C=C(C=O)CC1CC(O)[C@]2(C)OC3CC4OC5C[C@]6(C)O[C@]7(C)CCC8OC9C[C@]%10(C)OC%11C(C)=CC(=O)OC%11CC%10OC9C[C@@H](C)C8OC7CC6O[C@]5(C)CC5OC5C4OC3CC2O1 (stereo not given in full) | -5.57* | 1.26*
COc1ccc(CCNC(=O)c2c(N)n(CCN3CCOCC3)c3nc4ccccc4nc23)cc1 | i | -0.43
C[C@@]1(CO)[C@H](O)CC[C@@]2(C)[C@H]1CC[C@H]1C[C@@H]3C[C@@]12CC[C@]3(O)CO | i | 0.12
CCOC(=O)C(O)(c1ccc(N(C)C(=O)c2ccc(Cl)c(Cl)c2)cc1)C(F)(F)F (stereo not given) | i | 0.42
COc1ccc(NP(=O)(Oc2ccc(Cl)cc2)Oc2ccc(Cl)cc2)cc1OC | i | 0.06
CCCCn1c(O)c(C(CC)=NC(C)c2ccccc2)c(=O)[nH]c1=O (stereo not given) | i | -0.82
OC(c1ccccc1)(c1ccccc1)c1ccncc1 | i | 0.17
Cc1cc(/C=C2\C(=O)NC(=O)N(Cc3ccccc3)C2=O)c(C)n1C1CC1 | i | 0.01
COc1ccc(CCNC2CCCCC2)cc1 | i | -0.48
Cc1cc(C)cc(-n2c(C)cc(/C=C3\C(=O)NC(=O)N(C)C3=O)c2C)c1 | i | 0.21
Cc1ccc(/C=C2\C(=O)NC(=O)N(Cc3ccccc3Cl)C2=O)o1 | i | 1.09
CCC(NC(=O)OC(C)(C)C)C(=O)Oc1cc(C)cc2oc(=O)c3c(c12)CCC3 (stereo not given) | i | -0.06

The last four entries of the part before open the next one.
SMILES | KCNQ2 block | KCNQ2 block baseline
COc1ccc(CCNC2CCCCC2)cc1 | i | -0.48
Cc1cc(C)cc(-n2c(C)cc(/C=C3\C(=O)NC(=O)N(C)C3=O)c2C)c1 | i | 0.21
Cc1ccc(/C=C2\C(=O)NC(=O)N(Cc3ccccc3Cl)C2=O)o1 | i | 1.09
CCC(NC(=O)OC(C)(C)C)C(=O)Oc1cc(C)cc2oc(=O)c3c(c12)CCC3 (stereo not given) | i | -0.06
CSc1ccc(CN2CCN(C(=O)COc3cccc(C)c3)CC2)cc1 | i | -1.06
CC1(C)C2([N+](=O)[O-])CN3CN(C2)CC1([N+](=O)[O-])C3 | i | 1.36
COc1ccc(NP(=O)(Oc2ccccc2OC)Oc2ccccc2OC)cc1 | i | -1.6
CN1CCN(Cc2ccc(Br)s2)CC1 | i | -0.58
CCOc1cc2c(cc1OCC)-n1cccc1C(c1ccc(OC)c(OC)c1)NC2 (stereo not given) | i | -0.13
O=C1NC(=O)C2(Cc3ccccc3N3CCCC32)C(=O)N1Cc1ccccc1 (stereo not given) | i | 1.64
CCOC(=O)C1(c2ccccc2)CCN(CC(=O)Nc2ccc(C)cc2)CC1 | i | -0.89
CCCn1cc2c3c(cccc31)C1CC(C)CN(C)C1C2 (stereo not given) | i | 0.05
COc1ccc(OC)c(-n2c(O)c(C=NCc3ccc4c(c3)OCO4)c(=O)[nH]c2=O)c1 | i | -0.4
COc1ccc(OC)c(-n2c(O)c(C=Nc3c(C)n(C)n(-c4ccccc4)c3=O)c(=O)[nH]c2=S)c1 | i | -0.04
C=CCn1c(O)c(C(CC)=NCc2cc(OC)cc(OC)c2)c(=O)[nH]c1=O | i | 0.29
CCOC(=O)c1cc2c(cn1)[nH]c1ccccc12 | i | -0.11
CN(CCOc1ccc(C=C2C(=O)NC(=O)NC2=O)cc1)c1ccccn1 | i | -1.69
CCOC(=O)C(O)(c1ccc(N(CC)S(=O)(=O)c2ccc(C)cc2)cc1)C(F)(F)F (stereo not given) | i | 0.08
CCOCN(C(=O)CCl)c1c(C)cccc1CC | i | -0.3
O=C1NC(=O)C(=Cc2csc3ccccc23)C(=O)N1 | i | -0.05
O=C1CCN(C(=O)CCCn2c(=O)oc3ccccc32)CC1 | i | 1.58
CN1CCN(c2c(C#N)c(C(F)(F)F)nn2C)CC1 | i | 0.16
CCCCCn1c(=O)c(C(=O)Nc2cc(C)ccn2)c(O)c2ccccc21 | i | 0.95
COc1ccc(-n2c(SCCN(C)C)nc3ccccc3c2=O)cc1 | i | -0.23
CC/C(=N\N1CCCCC1)c1c(O)[nH]c(=O)[nH]c1=O | i | 1.29
CC(=O)c1c(C)[nH]c(C(=O)N2CCC3(CC2)OCCO3)c1C | i | 3.32
O=C(CF)NC(NC(=S)Nc1ccccc1O)C(Cl)(Cl)Cl (stereo not given) | i | 0.7
Cc1cccc(-c2nc3ccccc3c(=O)n2-n2cccc2)c1 | i | 0.7
O=P(O)(O)Cc1c(Cl)cccc1Cl | i | 0.25
CSc1ccc(CN2CCN(Cc3ccccc3Cl)CC2)cc1 | -6.59* | 0.72*
CN1CCN(c2ccc3c(c2)S(=O)(=O)c2ccccc2C3=O)CC1 | i | 2.9
COc1ccccc1N1CCN(Cc2cccc(Br)c2)CC1 | i | 1.52
COc1ccc(-c2cc(C(=O)N3CCC4(CC3)OCCO4)c3ccccc3n2)cc1 | i | -0.99
CSc1ccc(CN2CCN(C(=O)COc3ccc(C)cc3)CC2)cc1 | i | 0.48
C=CCn1c(O)c(/C=C2/C=CC=N2)c(=O)[nH]c1=O | i | 0.35
CC(=O)O[C@H]1CC[C@@]2(C)[C@H](C1)C(=O)C[C@H]1[C@@H]3CC[C@@H]4[C@@H](CN5C[C@@H](C)CC[C@H]5[C@@]4(C)O)[C@@H]3C[C@@H]12 | i | 1.36
CN(C)CCOC(=O)c1cn(Cc2ccccc2)c2ccccc12 | i | -0.61
Cc1ccc(-n2c(O)c(C=NCc3cccnc3)c(=O)[nH]c2=O)cc1C | i | -0.31
O=P(c1ccccc1)(c1nc2ccccc2s1)N1CCOCC1 (stereo not given) | i | -1.08
Cc1cccc(C(=O)Nc2ccc(Cl)cc2C(=O)c2ccccc2)c1 | i | 0.03
CN1C(=O)C(=Cc2sc(=O)n(-c3ccccc3)c2N(C)C)C(=O)N(C)C1=O | i | 0.21
CCC1(C)OC(c2ccccc2)=C/C(=C/C=C2C(=O)NC(=O)NC2=O)O1 (stereo not given) | i | 2.43
CCOC(=O)c1ccc(NC(=O)c2c(O)[nH]c(=O)[nH]c2=O)cc1 | i | 2.1
c1ccc2sc(N3CCNCC3)nc2c1 | i | 1.02
Cc1ccc(-n2c(O)c(C=N)c(=O)n(-c3ccc(C)cc3)c2=O)cc1 | i | -1.66
NCCc1ccccn1 | i | -0.25
CC(=O)NC(Cc1ccc(N(CCCl)CCCl)cc1)C(=O)NC(C(=O)O)C(C)C (stereo not given) | i | -0.87
CC(C)CC1C(C#N)=C(N)Oc2c1c(=O)oc1ccccc21 (stereo not given) | i | 1.25
CN1CCN(Cc2c(F)cccc2Cl)CC1 | i | 0.91
CCCCCn1c(=O)c(C(=O)Nc2cccc(C)n2)c(O)c2ccccc21 | i | 0.26
O=C(CN1CCOCC1)NCC(=O)Nc1ccc(Br)cc1C(=O)c1ccccc1 | i | 0.03
O=c1c2ccccc2[nH]c(=S)n1-c1ccc(Br)cc1 | i | -0.51
Oc1ccc2c3c1O[C@H]1[C@@H](O)CC[C@@]4(O)[C@@H](C2)N(CC2CCC2)CC[C@]314 | i | -0.01
O=Cc1cn(Cc2cccc([N+](=O)[O-])c2)c2ccccc12 | i | -0.58
O=C(CN1CCOCC1)c1ccc(Br)cc1 | i | 0.82
Oc1ccc(/C=N/NP(=S)(c2ccccc2)c2ccccc2)cc1O | i | -2.18
COc1ccc(Cl)cc1N=Cc1c(O)n(C)c(=O)n(C)c1=O | i | 2.9
COc1ccccc1-n1c(-c2ccccc2Br)nc2ccccc2c1=O | i | 1.41
COC(=O)Nc1ccc(N=C(N)N[N+](=O)[O-])cc1 | i | -0.05
Cn1cc(CCC(=O)N2CCC3(CC2)OCCO3)c2ccccc21 | i | 0.18
CCn1cc(C(=O)O)c(=O)c2ccc(C)nc21 | i | 1.61
CC1(C)C(C(=O)NN2C(=O)c3ccccc3C2=O)C1(C)C | i | 0.67
C=CCn1c(O)c(C(C)=NCCO)c(=O)[nH]c1=O | i | -0.22
C/C(=N\NC(=O)c1ccncc1)c1c(O)n(Cc2ccccc2)c(=O)[nH]c1=O | i | -0.16
Other compounds follow.
SMILES | KCNQ2 block | KCNQ2 block baseline
COc1ccc(-n2c(/C=C/c3cccc(F)c3)nc3ccccc3c2=O)c(OC)c1 | i | -1.08
CC(C)c1ccc(NC(=O)CSc2nnc(OC(=O)N(C)C)n2C2CC2)cc1 | i | -0.39
CC(C)CN1CCN(Cc2ccc(F)cc2Cl)CC1CCO (stereo not given) | i | -0.77
CCN1CCN(C(=O)COc2ccc3c(c2)C(=O)CC2(CCN(C(C)=O)CC2)O3)CC1 | i | 0.8
C=CCn1c(O)c(Cc2ccc(OCC)cc2)c(=O)[nH]c1=O | i | 0.01
N#Cc1ccc(Cn2cc(C=O)c3ccccc32)cc1 | i | 0.3
O=C1CN(C(=O)COC(=O)Cc2ccccc2)c2ccccc2N1 | i | -0.17
CN(C)C(=O)Oc1ccc(-c2cn3cc(Cl)ccc3n2)cc1 | i | -1.39
O=[N+]([O-])c1ccc(NCCCN2CCOCC2)c2ncccc12 | i | -0.03
COc1cccc(C(=O)C2CCCN(Cc3ccc4nonc4c3)C2)c1 (stereo not given) | i | -1.96
O=C1NC(=S)NC(=O)C1=Cc1ccc(Br)s1 | i | 0.82
COC(=O)CC1NC2CCCCC2NC1=O (stereo not given) | i | 1.18
Cc1ccc(-n2nc(C)c(C3C(C#N)=C(N)Oc4c3c(=O)oc3ccccc43)c2Cl)cc1 (stereo not given) | i | 0.06
O=C(Cc1ccccc1)N1CCN(Cc2cccnc2)CC1 | i | 0.28
CCCc1cc(=O)oc2cc(OCC(=O)N3CCN(Cc4ccc5c(c4)OCO5)CC3)ccc12 | i | -0.84
CCC1(C(=O)c2ccccc2)C2c3ccccc3OC(=O)C21C(C)=O (stereo not given) | i | -0.84
CC(=C1C(=O)c2ccccc2C1=O)N1CCN(CCN=Cc2c(O)n(C)c(=O)n(C)c2=O)CC1 | i | -0.24
Cc1nc2cc(-c3cccc(F)c3)nn2c(C)c1CCC(=O)N1CCC2(CC1)OCCO2 | i | 0.56
CC(=O)OC1C2CCC1C(N1CCCCC1)CC2 (stereo not given) | i | -1.12
O=C(Cn1cc(C(=O)c2ccccc2)c2ccccc21)NCc1ccco1 | i | 0.13
O=Cc1cn(Cc2c(F)cccc2Cl)nc1-c1ccccc1 | i | -1.06
CCC(C)NS(=O)(=O)c1ccc(OCC(=O)N2CCN(CC)CC2)cc1 (stereo not given) | i | -1.18
CN1C(=O)NC(=O)/C(=C/c2ccc(C(=O)O)cc2)C1=O | i | 1.27
COc1ccc(C2CN(C)CC2C(=O)c2ccc(C)cc2)cc1Cl (stereo not given) | i | 1.95
O=S(=O)(c1ccccc1)N1CCN2CCCC2C1 (stereo not given) | i | 1.61
Cc1ccc(N2C(=O)NC(=O)/C(=C\C=C\c3ccco3)C2=O)cc1C | i | 4.25
O=P1(NCCCn2cc[n+](Cc3nc4ccccc4[nH]3)c2)C=C(c2ccccc2)OC(c2ccccc2)=C1 | i | 1.32
CN(C)CCCN=Cc1c(O)n(CCc2ccc(F)cc2)c(=O)[nH]c1=O | i | 1.79
CN1C(=O)N(C)C(=O)C2(Cc3cc([N+](=O)[O-])ccc3N(C)C2c2ccccc2)C1=O (stereo not given) | i | -0.38
CCCCCCOc1ccc(CN2CCN(C)CC2)cc1 | i | 2.02
O=C(C[N+]12CCC(CC1)C(C(O)(c1ccccc1)c1ccccc1)C2)c1ccc(Br)cc1 (stereo not given) | i | 0.65
CCCN1CCC2(CC1)NC(CO)(CO)CO2 | i | -1.13
Nc1ccc(Br)cc1C(=O)c1ccccc1 | i | 1.6

An excerpt from above in order of SMILES length, lowest first:
SMILES | KCNQ2 block | KCNQ2 block baseline
O=S(=O)(c1ccccc1)N1CCN2CCCC2C1 (stereo not given) | i | 1.61
O=C1NC(=O)C(=Cc2csc3ccccc23)C(=O)N1 | i | -0.05
O=Cc1cn(Cc2cccc([N+](=O)[O-])c2)c2ccccc12 | i | -0.58
CN1CCN(c2ccc3c(c2)S(=O)(=O)c2ccccc2C3=O)CC1 | i | 2.9
CCOC(=O)C1(c2ccccc2)CCN(CC(=O)Nc2ccc(C)cc2)CC1 | i | -0.89
CC(=O)NC(Cc1ccc(N(CCCl)CCCl)cc1)C(=O)NC(C(=O)O)C(C)C (stereo not given) | i | -0.87
COc1ccc(/C=C/C(=O)c2c(O)n(CCC3=CCCCC3)c(=O)[nH]c2=O)cc1OC | i | 1.13
